Mtb H37Rv = Mycobacterium tuberculosis H37Rv growth inhibition, putative kinase inhibitor library, confirmatory dose response (AID 2842) | M. tuberculosis H37Rv growth inhibition; higher % means a stronger effect; some inactives read as strong as hits | inhibition, % at 10 µg/mL, or IC90 in µg/mL where a hit was titrated | 24,000 compounds, 5.2% hits;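 active = confirmed in a dose series; inconclusive = mostly over 85% at the one dose but not retested; inactive = below 85% or not confirmed; about a fifth of its hits are not listed in these tables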;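 also: bacteria incubated one week before Alamar blue readout; 0% = bacteria only wells and 100% = bacteria with high antibiotic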
Active calls of the source: *; ? = inconclusive.

SMILES	Mtb H37Rv
O=C(Nc1nnc(-c2ccc(Cl)cc2)s1)c1cccc(C(F)(F)F)c1	14.8%
COc1ccc(Cn2cc3c(-c4ccc(F)cc4)nnc-3c3cc(OC)c(OC)cc32)cc1	18.5%
O=C(NC1CC(=O)N(c2ccc3c(c2)OCCO3)C1)N1CCN(c2ccccc2)CC1 (stereo not drawn)	10.0%
Cc1cc2c(c(=O)n1CCO)C(c1ccccc1Cl)C(C#N)=C(N)O2 (stereo not drawn)	-4.9%
CC(=O)c1ccc(NC(=O)CSc2nnc(-c3cccnc3)n2-n2cccc2)cc1	-2.2%
COc1ccc(-n2c(=O)cc(N3CC(C)OC(C)C3)[nH]c2=O)cc1 (stereo not drawn)	-6.1%
CCC(Sc1ccccc1)C(=O)Nc1nnc(-c2ccc(OC)cc2OC)s1 (stereo not drawn)	-3.2%
COC(=O)c1ccc(CSc2ccc3nnc(-c4ccc(C)cc4)n3n2)o1	-9.5%
COc1ccc(-c2nc(SCC(=O)Nc3cc(Cl)ccc3OC)c3c(=O)n(C)c(=O)n(C)c3n2)cc1	-2.7%
CCOC(=O)c1nn(-c2ccc(C(F)(F)F)cc2)c(=O)c2c(NC(=O)c3ccc(S(=O)(=O)N(CC)CC)cc3)scc12	2.8%
COc1ccc(Cl)c2sc(N(Cc3cccnc3)C(=O)c3cccc(S(C)(=O)=O)c3)nc12	-13.3%
Cc1ccc(C)c(NC(=O)CSc2nc(N)c(NC(=O)c3ccc(Br)o3)c(=O)[nH]2)c1	-2.2%
O=C(Nc1ccc2c(c1)N(S(=O)(=O)c1cccs1)CCC2)c1ccccc1C(F)(F)F	-4.2%
Cc1c(C)n2c3c(=O)[nH]c(=O)n(C)c3nc2n1CCNc1ccc(Cl)cc1	-11.1%
Cc1cc(NS(=O)(=O)c2cc3c4c(c2)CCN4C(=O)CC3)ccc1Br	3.3%
COc1cc(OC)cc(C(=O)Nc2nnc(-c3cccc(SC)c3)o2)c1	12.4µg/mL*
O=C(CCSc1ccccc1)Nc1nc(-c2cc3ccccc3oc2=O)cs1	6.9%
CCN1CCN(CC(=O)Nc2ccccc2)C(=O)C1=O	0.5%
C=CCSc1nc(N)c(NC(=O)c2ccco2)c(=O)[nH]1	-7.2%
O=C(NCc1ccc2c(c1)OCO2)C(=O)NCC(c1ccco1)N1CCN(c2ccccc2)CC1 (stereo not drawn)	-3.0%

Molecules shown so far containing bromine (2):
SMILES	Mtb H37Rv
Cc1ccc(C)c(NC(=O)CSc2nc(N)c(NC(=O)c3ccc(Br)o3)c(=O)[nH]2)c1	-2.2%
Cc1cc(NS(=O)(=O)c2cc3c4c(c2)CCN4C(=O)CC3)ccc1Br	3.3%

The list goes on.
SMILES	Mtb H37Rv
O=[N+]([O-])c1ccc(S(=O)(=O)N2CCN=C2SCc2ccc(F)cc2)cc1	-4.0%
CC(=O)CC1(O)C(=O)N(CCOc2ccccc2)c2ccccc21 (stereo not drawn)	-5.0%
CCOc1ccc(N2CCCCn3c2nc2c3c(=O)n(CC(N)=O)c(=O)n2C)cc1	-15.2%
Cc1nnc(SCC(=O)Nc2ccccc2F)n(N)c1=O	-8.7%
CCC(=O)Nc1c2c(nn1-c1ccc(C)cc1)CS(=O)C2 (stereo not drawn)	1.3%
CCCn1c(C)cn2c3c(=O)n(Cc4cccc(C)c4)c(=O)n(C)c3nc12	-2.9%
Brc1ccc(-c2noc(-c3cc(C4CC4)[nH]n3)n2)cc1	10.9%
Cc1ccc(C)c(NC(=O)CSc2nc(N)c(NC(=O)c3cccs3)c(=O)[nH]2)c1	-16.8%
NS(=O)(=O)c1ccc(NC(=O)COc2ccc(Cl)cc2)cc1	-17.6%
Cc1ccc(-n2c(=O)[nH]c3c(C(N)=O)nc(-c4cccc(C(F)(F)F)c4)nc32)cc1C	-13.0%
O=C(CSc1ccc(-c2ccc3c(c2)OCO3)nn1)N1CCCc2ccccc21	-4.3%
O=C(O)c1cccc(Nc2nc(-c3cccnc3)nc3ccccc23)c1	5.3%
Cc1ccc(C(=O)Nc2ccc(S(=O)(=O)Nc3nccs3)cc2)cc1I	19.8%
COc1cc(-c2nnc(NC(=O)c3ccccc3Oc3ccccc3)o2)cc(OC)c1OC	78.1%
CS(=O)(=O)c1ccc2nc(NC(=O)c3cccc(Br)c3)sc2c1	96.8%
CCOC(=O)CCC(=O)Nc1scc2c(C(=O)OCC)nn(-c3ccccc3)c(=O)c12	-4.3%
Cc1nc2sc(C(c3ccc(Br)cc3)N3CCC(C(N)=O)CC3)c(O)n2n1 (stereo not drawn)	-6.0%
CC(=O)Nc1ccc2nc(Nc3nc4c(F)cccc4s3)sc2c1	44.3%
COc1ccc(C(=O)CSc2nc(-c3cccs3)nc3c2c(=O)n(C)c(=O)n3C)cc1	-6.7%
Nc1ncnc(NNC(=O)CNC(=O)c2cccs2)c1[N+](=O)[O-]	-7.8%

A draw from above in order of SMILES length, falling:
SMILES	Mtb H37Rv
Nc1ncnc(NNC(=O)CNC(=O)c2cccs2)c1[N+](=O)[O-]	-7.8%
CS(=O)(=O)c1ccc2nc(NC(=O)c3cccc(Br)c3)sc2c1	96.8%
O=C(O)c1cccc(Nc2nc(-c3cccnc3)nc3ccccc23)c1	5.3%
NS(=O)(=O)c1ccc(NC(=O)COc2ccc(Cl)cc2)cc1	-17.6%

The list goes on:
SMILES	Mtb H37Rv
CS(=O)(=O)Nc1cccc(C2=NN(S(=O)(=O)c3ccccc3)C(c3ccccc3)C2)c1 (stereo not drawn)	-2.3%
COc1cc2ccccc2cc1C(=O)Nc1nc2c(cc3c4c(cccc42)CC3)s1	-1.1%
NC(=O)c1nc(-c2ccccc2)nc2c1[nH]c(=O)n2-c1ccc2c(c1)OCO2	-5.2%
COCCn1c(SCC(N)=O)nc2c(c1=O)SC(C)C2 (stereo not drawn)	-4.6%
Cc1ccc(NC(=O)c2oc3ccccc3c2NC(=O)C(C)C)cc1C	-2.8%
CCOc1ccc(NC(=O)c2oc3ccccc3c2NC(=O)CC(C)(C)C)cc1	15.7%
CC(C)CCNc1nc2c(c(=O)[nH]c(=O)n2C)n1CC(O)COc1ccccc1 (stereo not drawn)	6.8%
COc1ccc(-n2c(=O)[nH]c3c(C(N)=O)nc(-c4ccc(F)c(F)c4)nc32)cc1OC	-17.4%
Cc1c(C)n2c(SCC(=O)N3CCC(Cc4ccccc4)CC3)nnc2[nH]c1=O	-8.1%
COc1ccc(Nc2nc(Nc3ccc(OC)cc3)nc(N3CCOCC3)n2)cc1	-5.1%
O=C(Cc1ccc(-c2ccccc2)cc1)Oc1coc(CSc2ncccn2)cc1=O	-1.8%
O=C(Nc1ccc(-c2nc3ccccc3[nH]2)cc1)c1cc(=O)c2ccccc2o1	0.3%
Cc1cccn2c(=O)c3cc(C(=O)NC(C)c4ccccc4)c(=N)n(C4CCCCC4)c3nc12 (stereo not drawn)	3.05µg/mL*
Cc1ccc(-n2ncc3c(=O)n(CC(=O)NCc4ccccc4)cnc32)cc1C	1.1%
CC(=O)c1ccc(NC(=O)CSc2ccc(-c3ccc4c(c3)OCO4)nn2)cc1	-1.0%
CC1=C(C(=O)OCc2ccccc2)C(c2ccc(O)cc2)n2ncnc2N1 (stereo not drawn)	-3.5%
COc1cccc(C2C(C(=O)c3ccc(C)o3)=C(O)C(=O)N2CCN2CCOCC2)c1OC (stereo not drawn)	8.8%
CC(=O)c1c(O)nc2ccccn12	-16.1%
O=C(CSc1nnc(-c2ccncc2)o1)c1ccc([N+](=O)[O-])cc1	58.1%
COc1ccc(NC(=O)c2oc3ccccc3c2NC(=O)c2ccc(F)cc2)cc1OC	-3.2%
Nc1nc(SCC(=O)NCc2ccccc2)[nH]c(=O)c1NC(=O)c1ccco1	-4.9%
Cc1cc(C)cc(OCCCn2c(CO)nc3ccccc32)c1	14µg/mL*
O=C(CSc1ccc2nnc(-c3ccccc3)n2n1)Nc1ccc2c(c1)OCCO2	-4.0%
O=C(CSc1ccc2nnc(-c3cccs3)n2n1)Nc1cccc(F)c1	-7.7%
Cc1ccc(C)c(C(=O)Nc2sc3c(c2C(N)=O)CCCCC3)c1	12.7%
COc1ccc(-n2c(=O)[nH]c3c(C(N)=O)nc(-c4ccncc4)nc32)cc1OC	-14.7%
COc1ccc(C)cc1NC(=O)c1c[nH]c(=O)n(-c2ccc(F)cc2)c1=O	4.2%
O=C(Cn1cc(C(=O)c2ccccc2)c(=O)c2cc3c(cc21)OCCO3)Nc1ccc(Cl)cc1	12.6%
O=C(CSc1ncnc2c1oc1ccccc12)Nc1ccc(Cl)cc1	6.2%
CC(=O)c1cccc(Nc2nc(-c3ccccc3)nc3ccccc23)c1	6.3%
O=C(Nc1ccc(OC(F)(F)F)cc1)c1ccc2nc[nH]c2c1	82.8%
Cc1sc(NC(=O)c2ccc3ncsc3c2)nc1-c1ccccc1	7.3%
Nc1ncnc(NCc2ccccc2Cl)c1[N+](=O)[O-]	4.6%
CC(=O)c1cccc(NC(=O)NC2CC(=O)N(c3cccc(F)c3)C2)c1 (stereo not drawn)	-4.9%
COCCCNc1nc2c(c(=O)n(C)c(=O)n2C)n1CC(O)COc1ccccc1 (stereo not drawn)	-7.0%
COc1cccc(NC(=O)c2cnc(SCc3ccc(F)cc3)n(C)c2=O)c1	4.4%
CCc1ccc(N2C(=O)C3N=NN(CC(=O)Nc4cc(Cl)ccc4C)C3C2=O)cc1 (stereo not drawn)	-4.8%
Cc1ccc(N2CCN(CC(O)Cn3c4ccccc4n4c(=O)cc(C)c(C#N)c34)CC2)cc1 (stereo not drawn)	1.7%
NC(=O)c1ccsc1NC(=O)Cc1ccccc1	0.7%
CC(=O)c1ccc(NC(=O)CC2Nc3cc(C)c(C)cc3NC2=O)cc1 (stereo not drawn)	5.8%
CCOc1cccc2sc(N3CCOCC3)nc12	7.4%
COc1ccc(NC(=O)c2oc3ccccc3c2NC(=O)CC(c2ccccc2)c2ccccc2)cc1	-1.9%
COc1ccc(C(=O)NCC(c2cccs2)N2CCc3ccccc3C2)cc1 (stereo not drawn)	-5.4%
O=c1[nH]c(NCCc2ccccc2)nnc1-c1ccccc1	-9.3%
Cc1cc(NS(=O)(=O)c2ccc(NC(=O)CCCOc3ccccc3)cc2)no1	?
COc1ccc(C(=O)Nc2nc3ccc4nc(C)sc4c3s2)cc1	6.2%
CC(C)C(=O)Nc1cc2c3c(c1)C(C)C(=O)N3CCC2 (stereo not drawn)	-10.3%
O=C(CCCCCn1c(=S)[nH]c2ccccc2c1=O)NC1CCCCC1	-9.7%
CSc1nc2ccc3nc(NC(=O)Cc4ccccc4)sc3c2s1	45.0%
O=c1[nH]nc(SCCCO)c(=O)[nH]1	0.0%
COc1ccc(Nc2oc(-c3ccccc3Cl)nc2C#N)cc1	?
O=C(CSc1nc2[nH]ncc2c(=O)[nH]1)NCc1ccccc1Cl	-3.1%
CCOC(=O)c1sc(NC(=O)CSc2nc3c(cnn3-c3ccccc3)c(=O)[nH]2)c(C(=O)OCC)c1C	-7.9%
COc1ccc(/C=C2\SC(=S)N(CCC(=O)Nc3nccs3)C2=O)cc1OC	-4.9%
COCCOC(=O)c1sc2nc[nH]c(=O)c2c1C	8.4%
O=C(c1ccc(Nc2nc(-c3ccccc3)c3cc(Br)ccc3n2)cc1)N1CCCCC1	12.7%
Cc1ccccc1NC(=O)CSc1nnc2ccc(-c3cccc([N+](=O)[O-])c3)nn12	4.6%
CC(C)N1CCc2c(sc(NC(=O)C3CCCCC3)c2C(N)=O)C1	1.0%
CSc1nc2ccc3nc(Nc4nc5c(F)cccc5s4)sc3c2s1	43.3%
CCOc1ccc2c(c1)c(=O)c(C(=O)c1ccc(F)cc1)cn2Cc1cccc(F)c1	-2.8%

More results follow:
SMILES	Mtb H37Rv
CCc1ccccc1NC(=O)c1c[nH]c(=O)n(-c2ccc(F)cc2)c1=O	5.8%
C=C(C)Cn1c(N2CCN(Cc3cccc(C)c3)CC2)nc2c1c(=O)[nH]c(=O)n2C	-10.4%
CCN1CCN(Cc2c(O)ccc3c2O/C(=C\c2ccc(F)cc2)C3=O)CC1	-6.0%
C=C(C)CSc1nc2c(c(=O)[nH]c(=O)n2C)n1Cc1ccccc1Cl	18.2%
CCOc1ccc2c(c1)c(=O)c(S(=O)(=O)c1ccc(Cl)cc1)cn2Cc1ccc(C)cc1	7.5%
N#Cc1c(NC(=O)Cc2cccc3ccccc23)sc2c1CCN(Cc1ccccc1)C2	9.1%
Cc1ccc(-c2nnc(NC(=O)c3ccc(Oc4ccccc4)cc3)o2)c(C)c1	-1.7%
Cc1ccc(C)c(-c2nnc(NC(=O)/C=C/c3ccccc3Cl)o2)c1	76.5%
O=C(O)c1cc(-c2cccs2)nc2ccccc12	4.3%
O=C(Nc1ccc2c(c1)OCCO2)c1oc2ccccc2c1NC(=O)C1CC(=O)N(c2ccccc2)C1 (stereo not drawn)	3.0%
CCCCOc1ccc(C(=O)NCCc2cc3ccc(OC)cc3[nH]c2=O)cc1	-1.3%
CCOC(=O)COc1cccc2c1CCN(Cc1ccccc1F)C2=O	-10.2%
CCOC(=O)c1cnc2ccc(OCC)cc2c1Nc1cccc(OC)c1	76.3%
COc1ccc(-c2nc(CCNS(=O)(=O)c3ccc4ccccc4c3)cs2)cc1	4.3%

Random excerpt: 7 records from the list, in no set order.
SMILES	Mtb H37Rv
Cc1ccc(C)c(-c2nnc(NC(=O)/C=C/c3ccccc3Cl)o2)c1	76.5%
CCOc1ccc2c(c1)c(=O)c(S(=O)(=O)c1ccc(Cl)cc1)cn2Cc1ccc(C)cc1	7.5%
CCN1CCN(Cc2c(O)ccc3c2O/C(=C\c2ccc(F)cc2)C3=O)CC1	-6.0%
C=C(C)CSc1nc2c(c(=O)[nH]c(=O)n2C)n1Cc1ccccc1Cl	18.2%
C=C(C)Cn1c(N2CCN(Cc3cccc(C)c3)CC2)nc2c1c(=O)[nH]c(=O)n2C	-10.4%
Cc1ccc(-c2nnc(NC(=O)c3ccc(Oc4ccccc4)cc3)o2)c(C)c1	-1.7%
CCOC(=O)COc1cccc2c1CCN(Cc1ccccc1F)C2=O	-10.2%

These rows are one share of the data; the hit share may differ from the screen's.
